Sa growth inh: S. aureus growth inhibition at 42 and 30 °C, primary screen, LtaS inhibitor project, RN4220, two temperatures; OD600, 20 h, 42 °C; hits give low values; relative growth, % (test concentration not listed); 170,000 tested, 0.53% active; AID 720641, 2013;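 active means growth at 42 °C up to 50% and 20 or more points under that at 30 °C, or under 10% at both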;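 further: 300 nL library stock went into each well; scaled to the means of positive and negative controls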
HCMV NEC inh: inhibitors of HCMV UL50-UL53 interaction, biochemical, HTRF | HCMV UL50-UL53 nuclear egress complex (human cytomegalovirus) | normalized percent inhibition | inhibition, % (test concentration not listed) | 190,000 tested, 0.15% active;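 active means both replicates at 50% or more, plus weaker picks with an unusually low signal ratio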;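 further: stock transfer was 100 nL into about 20 µL; 0% = negative control wells and 100% = wells with untagged competitor protein; inactives centre near -12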
GIV-Gai inh: inhibitors of GIV peptide binding to Galpha-i3, primary screen, biochemical, fluorescence polarization, FITC-GIV GBA peptide, rat Galphai3 | Guanine nucleotide-binding protein G(i) subunit alpha-3 (Rattus norvegicus), P08753 | 90 min; hits give low values; scaled: aluminum fluoride 0%, vehicle 100% | percent of control (FP), % (no concentration beside the values) | 210,000 tested, 0.42% active | AID 1224905, 2016;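 active means replicate mean at 85% of control or lower, very high polarization wells dropped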;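 further: wells of about 15 µL received 100 nL stock; the first replicate is given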
Target sequence (P08753 whole entry, looked up): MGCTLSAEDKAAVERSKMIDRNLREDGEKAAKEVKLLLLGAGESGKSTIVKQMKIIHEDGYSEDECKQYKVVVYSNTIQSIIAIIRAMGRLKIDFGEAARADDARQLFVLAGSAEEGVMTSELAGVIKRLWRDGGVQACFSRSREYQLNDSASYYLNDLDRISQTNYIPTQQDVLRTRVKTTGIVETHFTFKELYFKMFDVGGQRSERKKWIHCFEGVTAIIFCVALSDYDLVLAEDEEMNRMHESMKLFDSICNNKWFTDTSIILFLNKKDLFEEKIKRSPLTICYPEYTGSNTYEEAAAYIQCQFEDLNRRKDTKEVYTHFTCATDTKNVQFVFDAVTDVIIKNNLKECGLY
Sa growth inh second temp: further read-out of Sa growth inh, marked with its call; relative growth, %; measured here: growth at 30 °C;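 optical density after 20 h as mean of two plates; 100% = untreated growth and lower means inhibition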
* marks the source's active call; other numbers are inactive results. Random draw from the library; overall some 0.79% were active at least once.

O=c1c2[nH]c3ccc(F)cc3c2ncn1Cc1ccc(F)cc1 was read as HCMV NEC inh 0 and GIV-Gai inh 104.
Screening CCn1c(O)c(N=O)n(CC)c1=S returned Sa growth inh 110, GIV-Gai inh 104 and Sa growth inh second temp 88.
CC(NC(=O)Cc1ccc(NC(=O)N2CCCCc3ccccc32)cc1)c1ccccc1 (stereo unspecified) was read as Sa growth inh 126, GIV-Gai inh 100 and Sa growth inh second temp 89.
`S=C(Nc1ccccc1)N1c2ccccc2Sc2ccccc21` gave Sa growth inh 76, HCMV NEC inh -4, GIV-Gai inh 107 and Sa growth inh second temp 46.
`O=C(NCCC1=CCCCC1)C1CCCN(c2ccnc(-c3ccccc3)n2)C1` (stereo unspecified) gave HCMV NEC inh 9 and GIV-Gai inh 97.
Screening CC(C)(CO)NCc1ccc(-c2cccc(C(F)(F)F)c2)o1 returned HCMV NEC inh 2 and GIV-Gai inh 102.
Screening Cc1ccc(C)c(NC(=O)/C(C#N)=C/c2ccc(C(C)C)cc2)c1 returned Sa growth inh 102, HCMV NEC inh -8, GIV-Gai inh 98 and Sa growth inh second temp 92.
Cc1ccc2cc(NC(=O)CC(CC(=O)O)c3ccccc3)ccc2n1 (stereo unspecified) was read as Sa growth inh 93, HCMV NEC inh -10, GIV-Gai inh 99 and Sa growth inh second temp 84.
`CCc1nc2c(C)nc(Nc3ccccc3)nc2n1-c1ccccc1` gave HCMV NEC inh 21 and GIV-Gai inh 105.
`CCNc1nc(C(=O)O)nc(N2CCOCC2)n1` gave Sa growth inh 100, HCMV NEC inh 3, GIV-Gai inh 102 and Sa growth inh second temp 91.
Screening CC1CN(c2ccc(C(F)(F)F)cn2)CC(C)O1 (stereo unspecified) returned Sa growth inh 128, HCMV NEC inh -24 and Sa growth inh second temp 93.
For COc1cc(C2Nc3ccccc3-c3nnc(SCc4ccc(C)cc4)nc3O2)cc(OC)c1O (stereo unspecified) the results were Sa growth inh 101, HCMV NEC inh -16, GIV-Gai inh 110 and Sa growth inh second temp 79.
`COc1ccccc1NC(=O)CSC1=Nc2ccccc2C2=NC(CCC(=O)NCc3cccs3)C(=O)N12` (stereo unspecified) gave Sa growth inh 87, GIV-Gai inh 104 and Sa growth inh second temp 88.
CN(Cn1nc(-c2ccc3c(c2)OCO3)oc1=S)C1CCCCC1 was read as Sa growth inh 45*, HCMV NEC inh 1 and Sa growth inh second temp 83*.
Screening O=C(NCC1CCCO1)C1CCN(S(=O)(=O)N2CCOCC2)CC1 (stereo unspecified) returned Sa growth inh 79, HCMV NEC inh 2, GIV-Gai inh 105 and Sa growth inh second temp 81.
For O=C(O)c1nn(CC(=O)N2CCCCCC2)c(=O)c2ccccc12 the results were Sa growth inh 87, HCMV NEC inh -17 and Sa growth inh second temp 104.
Screening O=C1CC(SCc2ccc(Cl)cc2)C(=O)N1c1ccccc1 (stereo unspecified) returned Sa growth inh 105, HCMV NEC inh 2, GIV-Gai inh 101 and Sa growth inh second temp 65.
For COc1ccc(-n2nc(C(=O)NCCc3ccc(Cl)cc3)c3c4ccccc4n(C)c3c2=O)cc1 the results were Sa growth inh 105, HCMV NEC inh -12, GIV-Gai inh 99 and Sa growth inh second temp 89.
Screening Cc1ccc2nc(-c3ccc(NC(=O)c4ccccc4S(C)(=O)=O)cc3)sc2c1 returned Sa growth inh 116, GIV-Gai inh 100 and Sa growth inh second temp 95.
`COC(=O)c1ccc2c(c1)nnn2C(C)C` gave Sa growth inh 113, HCMV NEC inh -10, GIV-Gai inh 95 and Sa growth inh second temp 85.
N=C1S/C(=C\c2ccco2)C(=O)N1c1ccc(Oc2ccccc2)cc1 was read as Sa growth inh 102, HCMV NEC inh -2, GIV-Gai inh 127 and Sa growth inh second temp 103.
Screening Cc1cc(=O)[nH]c(-c2cccs2)n1 returned Sa growth inh 97, HCMV NEC inh -5, GIV-Gai inh 103 and Sa growth inh second temp 83.
Cn1c(=O)c(-c2noc(CCC(=O)NC3CCCC3)n2)nn(-c2ccccc2)c1=O was read as HCMV NEC inh -100 and GIV-Gai inh 111.
Screening Cc1cccc(-c2noc(C3CC(=O)N(c4ccc5c(c4)OCCO5)C3)n2)c1 (stereo unspecified) returned Sa growth inh 117, GIV-Gai inh 98 and Sa growth inh second temp 89.
For O=C1CCCC/C1=C\Nc1ccc(Cl)cn1 the results were Sa growth inh 97, HCMV NEC inh -82 and Sa growth inh second temp 78.
`Cc1ccc(S(=O)(=O)/C=C2\NC(=O)CS2)cc1` gave Sa growth inh 79, HCMV NEC inh -12 and Sa growth inh second temp 90.
`CCOC(=O)c1sc2nc(CSc3nc4ccccc4c(=O)n3CCOC)[nH]c(=O)c2c1C` gave Sa growth inh 101, HCMV NEC inh -30 and Sa growth inh second temp 99.
Screening Cc1cccc(C(=O)OCc2cc(=O)n3nc(C4CCCCC4)sc3n2)c1 returned Sa growth inh 88, GIV-Gai inh 100 and Sa growth inh second temp 92.
`Cc1cccc(N2CCN(C(=O)Cn3ncc4c3-c3cc(C)ccc3OC4)CC2C)c1` (stereo unspecified) gave Sa growth inh 87, HCMV NEC inh -26, GIV-Gai inh 98 and Sa growth inh second temp 63.
For CN1C(=O)C2C(C1=O)C1(C)C=CC2(C)O1 (stereo unspecified) the results were Sa growth inh 103, HCMV NEC inh -8, GIV-Gai inh 105 and Sa growth inh second temp 92.
Screening Cn1nccc1C(=O)NCc1ccc2c(c1)CCN2C(=O)c1ccc(Cl)cc1 returned Sa growth inh 94, GIV-Gai inh 104 and Sa growth inh second temp 41.
Screening CCOc1ccc(CC(=O)Nc2ccc3c(c2)N(C)C(=O)c2ccccc2S3)cc1OCC returned Sa growth inh 129, GIV-Gai inh 104 and Sa growth inh second temp 86.
`O=C(Cn1c(=O)n(Cc2ccc(Cl)cc2)c(=O)c2nccnc21)Nc1cccc(Cl)c1` gave HCMV NEC inh -128 and GIV-Gai inh 107.
CCOc1ccc(-n2c(SCC(=O)N3CCCC3)nc3c([nH]c4ccccc43)c2=O)cc1 was read as Sa growth inh 102, GIV-Gai inh 101 and Sa growth inh second temp 85.
CC(C)NC(=O)CN1c2ccc(Br)cc2-c2ccccc2S1(=O)=O was read as HCMV NEC inh -12 and GIV-Gai inh 96.
Screening Cc1ccc(O)c(NC(=O)c2ccc(Br)c(S(=O)(=O)N3CCCCC3)c2)c1 returned Sa growth inh 108, HCMV NEC inh -5, GIV-Gai inh 112 and Sa growth inh second temp 83.
`Cc1ccc2c(c1)C(c1ccc(F)cc1)N(C(=O)c1ccc(S(=O)(=O)N3CCCCC3)cc1)CC(=O)N2` (stereo unspecified) gave Sa growth inh 100, HCMV NEC inh 7, GIV-Gai inh 106 and Sa growth inh second temp 111.
Screening O=C(Nc1ccc(F)cc1)c1cccc(OC(=S)Nc2cccc(Br)c2)c1 returned Sa growth inh 3, HCMV NEC inh -9 and Sa growth inh second temp 10.
Screening COc1ccc(CCNC(=O)c2cc3cccc4c3n2CC(C)S4)c(OC)c1OC (stereo unspecified) returned Sa growth inh 121, GIV-Gai inh 105 and Sa growth inh second temp 94.
Screening CC1CCN(CN2C(=O)C3(OCCCO3)c3ccccc32)CC1 returned Sa growth inh 141, GIV-Gai inh 101 and Sa growth inh second temp 94.
Screening O=C(NCC1COC2(CCCC2)O1)C1CC1 (stereo unspecified) returned Sa growth inh 93, HCMV NEC inh -44, GIV-Gai inh 99 and Sa growth inh second temp 78.
For Cc1ccc(C)c(NC(=O)c2[nH]c(C)c(S(=O)(=O)N3CCCC3)c2C)c1 the results were HCMV NEC inh -29 and GIV-Gai inh 111.
Cc1c(S(=O)(=O)c2ccc(Cl)cc2)csc1N was read as Sa growth inh 98, HCMV NEC inh -10, GIV-Gai inh 104 and Sa growth inh second temp 85.
`CCc1cccc(NS(=O)(=O)c2c(C)nc3sc(CC)nn3c2=O)c1` gave Sa growth inh 111, HCMV NEC inh -10, GIV-Gai inh 106 and Sa growth inh second temp 82.
`Cc1cc(C)c2c(n1)sc1c(=O)n(/N=C/c3cccs3)cnc12` gave Sa growth inh 96, HCMV NEC inh -12, GIV-Gai inh 106 and Sa growth inh second temp 90.
For CN(C)C(=O)CSc1nnc(-c2ccncc2)n1C the results were Sa growth inh 107, HCMV NEC inh -3, GIV-Gai inh 106 and Sa growth inh second temp 93.
O=c1[nH]c(SCc2ccccc2)nc2ccccc12 was read as Sa growth inh 102, HCMV NEC inh -1, GIV-Gai inh 102 and Sa growth inh second temp 96.
CSc1nnc(-c2ccccc2NC(=O)c2ccccc2)c(=O)[nH]1 was read as Sa growth inh 99, HCMV NEC inh -16, GIV-Gai inh 102 and Sa growth inh second temp 95.
O=S1(=O)c2cccc3cccc(c23)N1Cc1ccccn1 was read as Sa growth inh 89, HCMV NEC inh -28 and Sa growth inh second temp 97.
Screening COc1cc2c(cc1OC)n(CC(=O)NC1CCCC(C)C1C)n1c(C)cc(=O)nc21 (stereo unspecified) returned Sa growth inh 106, GIV-Gai inh 102 and Sa growth inh second temp 98.
For O=C(Nc1nc2c(ncn2C(CO)OC(CO)CO)c(=O)[nH]1)c1ccccc1 (stereo unspecified) the results were Sa growth inh 104, HCMV NEC inh -17, GIV-Gai inh 98 and Sa growth inh second temp 88.
Screening COc1ccc2c(=O)/c(=C/c3ccc4c(c3)OCO4)oc3cccc1c32 returned Sa growth inh 116, GIV-Gai inh 107 and Sa growth inh second temp 86.
For CCOC(=O)Oc1ccc2c(c1)C(C)=CC(C)(C)N2C(=O)OCC the results were Sa growth inh 111, GIV-Gai inh 108 and Sa growth inh second temp 85.
COc1ccc2cc3c(nc2c1)N(S(=O)(=O)c1ccc(F)cc1)CC3 was read as HCMV NEC inh -4 and GIV-Gai inh 101.
CCOC(=O)Cc1csc(NC(=S)NC(=O)c2ccco2)n1 was read as Sa growth inh 69, HCMV NEC inh -30 and Sa growth inh second temp 91.
Screening CCOc1ccc(-c2nc(CSCC(=O)NCCc3ccc(OCC)c(OCC)c3)c(C)o2)cc1 returned Sa growth inh 106, GIV-Gai inh 102 and Sa growth inh second temp 97.
For CC1CCCN(c2nc3nonc3nc2Nc2ccccc2F)C1 (stereo unspecified) the results were HCMV NEC inh -23 and GIV-Gai inh 102.
Cc1cc(C)nc(SCc2noc(-c3ccc(Cl)cc3)n2)n1 was read as Sa growth inh 107, HCMV NEC inh -4, GIV-Gai inh 104 and Sa growth inh second temp 77.
Screening Cc1ccc(NC(=O)CCS(=O)(=O)c2ccc3c(c2)n(C)c(=O)c(=O)n3C)cc1 returned Sa growth inh 84, GIV-Gai inh 102 and Sa growth inh second temp 96.
Screening CCn1nc(-c2ccccc2)c(-c2ccccc2)c(C(=O)Nc2ccc(NC(C)=O)cc2)c1=O returned Sa growth inh 101, HCMV NEC inh -22, GIV-Gai inh 102 and Sa growth inh second temp 85.
Screening Cc1ccc2c(Sc3ccc(Cl)cc3)c(C(=O)NCc3ccccn3)[nH]c2c1 returned HCMV NEC inh -9 and GIV-Gai inh 98.
For CN(C1CCCCC1)C(c1ccc(F)cc1)c1nnnn1C1CCCCC1 (stereo unspecified) the results were Sa growth inh 108, HCMV NEC inh -19, GIV-Gai inh 104 and Sa growth inh second temp 87.
`CCOC(=O)c1c(Oc2ccc(OC)cc2)nnc(-c2ccccc2)c1-c1ccccc1` gave Sa growth inh 108, HCMV NEC inh -27, GIV-Gai inh 99 and Sa growth inh second temp 92.
Screening Cn1c(=O)oc2cc(S(=O)(=O)N3CCCC(C(=O)NCCc4ccc(Cl)cc4)C3)ccc21 (stereo unspecified) returned Sa growth inh 106, HCMV NEC inh -17, GIV-Gai inh 105 and Sa growth inh second temp 94.
CCCN(CCC)CCn1cnc2c([nH]c3ccccc32)c1=O was read as Sa growth inh 103, GIV-Gai inh 110 and Sa growth inh second temp 97.

In the list so far, 8 have an aryl methoxy group.
For COc1cc(C2Nc3ccccc3-c3nnc(SCc4ccc(C)cc4)nc3O2)cc(OC)c1O (stereo unspecified) the results were Sa growth inh 101, HCMV NEC inh -16, GIV-Gai inh 110 and Sa growth inh second temp 79.
`COc1ccccc1NC(=O)CSC1=Nc2ccccc2C2=NC(CCC(=O)NCc3cccs3)C(=O)N12` (stereo unspecified) gave Sa growth inh 87, GIV-Gai inh 104 and Sa growth inh second temp 88.
For COc1ccc(-n2nc(C(=O)NCCc3ccc(Cl)cc3)c3c4ccccc4n(C)c3c2=O)cc1 the results were Sa growth inh 105, HCMV NEC inh -12, GIV-Gai inh 99 and Sa growth inh second temp 89.
Screening COc1ccc(CCNC(=O)c2cc3cccc4c3n2CC(C)S4)c(OC)c1OC (stereo unspecified) returned Sa growth inh 121, GIV-Gai inh 105 and Sa growth inh second temp 94.
Screening COc1cc2c(cc1OC)n(CC(=O)NC1CCCC(C)C1C)n1c(C)cc(=O)nc21 (stereo unspecified) returned Sa growth inh 106, GIV-Gai inh 102 and Sa growth inh second temp 98.
Screening COc1ccc2c(=O)/c(=C/c3ccc4c(c3)OCO4)oc3cccc1c32 returned Sa growth inh 116, GIV-Gai inh 107 and Sa growth inh second temp 86.
COc1ccc2cc3c(nc2c1)N(S(=O)(=O)c1ccc(F)cc1)CC3 was read as HCMV NEC inh -4 and GIV-Gai inh 101.
`CCOC(=O)c1c(Oc2ccc(OC)cc2)nnc(-c2ccccc2)c1-c1ccccc1` gave Sa growth inh 108, HCMV NEC inh -27, GIV-Gai inh 99 and Sa growth inh second temp 92.

Compound activity as filed in PubChem.
